Vaccinia Venus: inhibitors of vaccinia virus (Venus reporter). Potency, µM (series often up to 36.5 µM), without a hit: at the top dose activity change, negative = inhibition, most hits filed as inhibitors. AID 720580. Vaccinia virus Venus reporter expression, fluorescence. hit rate 0.46% among 330,000; active means well fitted inhibition curve with a large enough effect; inconclusive means small, poorly fitted or top-dose-only effect; inactive means no such curve, though single readings can be large or run the other way; tested in A549 cells; note: nearly all actives have a fitted effect of over 30% in size; inactives centre near -10
VACV mCherry inh: vaccinia inhibition (mCherry reporter); Potency, µM (titrated, usually from 36.5 µM), without a hit: at the top dose activity change, negative = inhibition, most hits filed as inhibitors; hit rate 0.63% among 310,000; Vaccinia virus mCherry reporter infection, fluorescence; about a quarter of the inactives have no number; active = well fitted inhibition curve with a large enough effect; inconclusive = small, poorly fitted or top-dose-only effect; inactive = no such curve, though single readings can be large or run the other way; tested in A549 cells; note: nearly all actives have a fitted effect of over 35% in size; inactives centre near -10
* hit, by the source's call; i = inactive; ? = inconclusive; . = no result given; & = joins results of further samples; [ ] = dose if it differs, or a comment. % is set by controls: 0 for no effect and ±100 for the full control effect; potency is the fitted concentration of half-maximal effect.

item | Molecule | Vaccinia Venus | VACV mCherry inh
1 | CO/N=C/CC(=O)c1cnc(-c2ccccc2)s1 | 7% | 5%
2 | NS(=O)(=O)c1cc(C(=O)OCC(=O)Nc2ccc(N3CCCCC3)cc2)ccc1Cl | 2%[7.34 µM] | -17%[7.34 µM]
3 | O=C(Nc1c2c(nn1-c1ccc(Cl)cc1)CS(=O)(=O)C2)c1ccc(Br)cc1 | -21% | i
4 | O=C(CNC(=O)C(c1ccccc1)c1ccccc1)OCC(=O)c1cccs1 | -20% | -6%
5 | CSc1ccccc1NC(=O)C1(C)CCN1C(=O)Cc1ccc(Cl)cc1Cl (stereo not drawn) | -7% | 2%
6 | CNc1nc(Nc2ccc(C(C)=O)cc2)nc(OC(C(F)(F)F)C(F)(F)F)n1 | ? | .
7 | Cc1cc(C)cc(NC(=O)CSc2nc3[nH]c(=O)cc(O)c3s2)c1 | 5% | -12%
8 | O=C(Nc1ccc(-n2cnnn2)cc1)C(c1ccccc1)c1ccccc1 | -8% | i
9 | CCn1ccc(C(=O)N2CCOCC2)n1 | -1% | -13%
10 | O=C(Nc1ccc(S(=O)(=O)NCc2cccnc2)cc1)c1ccccc1Cl | -24% | -2%
11 | COc1ccc(Cl)cc1NC(=O)CN1CCN(Cc2ccccc2)CC1 | -15% | -24%
12 | CCNC(=O)NNC(=O)C1CC(c2cccs2)=NO1 (stereo not drawn) | -14% | -4%
13 | CC(=O)Nc1cc(-c2ccc(F)cc2)cn2c(-c3ccc(F)cc3)cnc12 | -11% | 2%
14 | CC(C)(C)S(=O)N1Cc2cc(C(=O)NCCCN3CCOCC3)nc(-c3cccc(-c4cc5ccccc5o4)c3)c2[C@H]1CCO (stereo partly drawn) | -12% | 14%
15 | O=C(N=C1SC2CS(=O)(=O)CC2N1c1ccc(F)cc1F)C1CC1 (stereo not drawn) | 1% | -14%
16 | CN(CC(=O)Nc1ccc(F)c(F)c1F)C(=O)CCCSc1nc2ccccc2[nH]1 | -20% | i
17 | O=C(CSc1nc2nn(-c3ccccc3)c(=O)c-2c2n1CCCCC2)NCCc1ccccc1 | -2% | -10%
18 | O=C(OCC(=O)N1CCN(c2ccccc2)CC1)c1ccccc1NCCO | 0% | -14%
19 | O=C(NC(=S)Nc1ccccc1Br)c1ccco1 | -21% | -12%
20 | COc1ccc(-c2nc(SC(C)C(=O)NCC3CCCO3)n[nH]2)cc1 (stereo not drawn) | -27% | -11%
21 | CCN(CC)S(=O)(=O)c1ccc2c(c1)c(=O)c(C(=O)N1CCN(c3ccc(OC)cc3)CC1)cn2C | -9% | -8%
22 | O=C(NCCNC(=O)c1ccccn1)c1ccccc1 | 5% | -13%
23 | O=C(CSc1nnc(-c2cccnc2)o1)Nc1ccc(Cl)cc1 | -4% | i
24 | CCCC(=O)NC1=C(Cl)C(=O)c2ccccc2C1=O | -6% | -19%
25 | O=C1c2cccc3cccc(c23)C(=O)N1c1ccc2ncccc2c1 | 27% | 28%
26 | COc1cc(OC)c(NC(=O)CCS(=O)(=O)c2ccc3c(c2)oc(=O)n3C)cc1Cl | 1% | -7%
27 | COc1ccc(OC(=O)N(C)C[C@@H]2OCc3cnnn3CCCC(=O)N([C@H](C)CO)C[C@@H]2C)cc1 | -14% | i
28 | CCOc1ccc(S(=O)(=O)N2CCCCC2)cc1NC(=O)C1CSC2(C)CCC(=O)N12 (stereo not drawn) | -5% | -22%
29 | CCOC(=O)C(C)Oc1cc(C)cc2oc(=O)c3c(c12)CCCC3 (stereo not drawn) | -8% | i
30 | Cc1c(C(=O)NCC2CCCO2)oc2ccc3c(c12)C(=O)CC(C)(C)O3 (stereo not drawn) | -22% | -6%
31 | OC[C@@H]1CN(C2CCCC2)C[C@H](n2cnc3c(NC4CCC4)ncnc32)O1 | 4% | -8%
32 | Cc1ccc(/C=N/N2CCN(c3ccccn3)CC2)cc1 | -1% | -14%
33 | O=C(CSc1ccc(Cl)cc1)N1CCOCC1 | 4% | -11%
34 | Cc1c(C(=O)Nc2ccc(F)c(F)c2)oc2ccc(S(=O)(=O)N3CCCCC3)cc12 | ? | ?
35 | Cc1ccccc1NC(=O)CSc1ccc(-c2ccc(-n3cccn3)cc2)nn1 | -6% | -11%
36 | Cc1ccc(-n2c(=O)c3cccnc3n2CC(=O)Nc2cc(Cl)ccc2C)cc1 | -8% | i
37 | Cc1ccc(C(=O)Cn2c(NCCO)nc3ccccc32)cc1 | -18% | .
38 | OC[C@@H]1CN(Cc2ccc(F)cc2)C[C@H](n2cnc3c(N4CCCC4)ncnc32)O1 | 0% | -16%
39 | O=C(Cn1cccc1)Nc1ccc(F)cc1F | -7% | -4%
40 | CC(=O)c1cccc(OCC(O)CN2CCN(C(=O)c3ccco3)CC2)c1 (stereo not drawn) | -1% | 24%
41 | O=C(CNC(=O)c1ccccc1)OCCOc1cccc(Cl)c1 | -13% | i
42 | COC(=O)Cc1c(C)nc2nc(-c3cccnc3)[nH]n2c1=O | 0% | -8%
43 | CC(=O)Nc1ccc(SC[C@H](C)CN2CC[C@H](O)CCC2=O)cc1 | -7%&-17% | i
44 | C=CCO/N=C(/C)c1ccc(Oc2cnccn2)cc1 | -8% | -3%
45 | CC1(C(=O)NS(=O)(=O)c2ccc3ccccc3c2)CCN1C(=O)Cc1ccc(Cl)cc1Cl (stereo not drawn) | 3% | -6%
46 | Cc1ccc(S(=O)(=O)N2CCN(C(=O)c3c(-c4ccccc4)noc3C)CC2)c(C)c1 | -2% | -14%
47 | COc1ccc(-c2cc(=O)oc3c(C)c(OCC(=O)NCC4CCC(C(=O)O)CC4)ccc23)cc1 (stereo not drawn) | -8% | 9%
48 | Cc1ccc(NC(=O)CN(C)C(=O)CNC(=O)c2cccs2)cc1 | -9% | -15%
49 | CCC1(C2CCN(C(=O)c3cccc(F)c3F)CC2)NC(=O)N(CCc2scnc2C)C1=O (stereo not drawn) | -9% | -10%
50 | CCCC(=O)Nc1nnc(/C=C/c2ccc(OC)cc2)s1 | -20% | -20%
51 | CCC1CCCCN1CCCNC(=O)c1ccc2c(=O)n(CCOC)c(=O)[nH]c2c1 (stereo not drawn) | -7% | i
52 | Cc1ccccc1S(=O)(=O)N1C(c2ccc(Cl)cc2)CC=C(C(=O)O)C1c1cccc(Cl)c1 (stereo not drawn) | -23% | -14%
53 | CC(=NOC(=O)c1ccc(F)cc1)c1nccs1 | -3% | 25%
54 | O=C(NCCCNC(=O)c1ccccc1Cl)c1cnccn1 | 2% | -9%
55 | C#CCOCCOCCOCCNc1nc(N2CCN(C(=O)C(CCC(=O)O)n3cc(C(N)CC(C)C)nn3)CC2)nc(N2CCN(C(=O)C(Cc3cc4ccccc4[nH]3)n3cc(C(N)Cc4ccc(O)cc4)nn3)CC2)n1 (stereo not drawn) | -1% | i
56 | CN(C)/C=C1\C(=O)N(c2ccc([N+](=O)[O-])cc2)N=C1c1ccccc1 | -29% | -27%

More records follow:
item | Molecule | Vaccinia Venus | VACV mCherry inh
57 | Cc1cc2c(cc(C(=O)OCC(=O)NCc3cccs3)n2C(C)C)o1 | -24% | -22%
58 | CCCNC(=O)C1CCC(Cn2c(=O)c3sccc3n(Cc3ccccc3C)c2=O)CC1 (stereo not drawn) | -7% | -10%
59 | Cn1c(=O)oc2cc(S(=O)(=O)N3CCCC(C(=O)N4CCN(c5cccc(Cl)c5)CC4)C3)ccc21 (stereo not drawn) | ? | ?
60 | CCOc1cc(-c2ccc(OC(=O)c3ccc(OC)cc3)c(OC)c2)cc(=O)c2c(C)oc(C)c12 | 0% | 2%
61 | COc1ccc(S(=O)(=O)N2C[C@@H](O)COC[C@@H]3O[C@H](CC(=O)NCCCN4CCOCC4)CC[C@H]32)cc1 | -24% | -4%
62 | COc1ccc(-c2oc3ncn4nc(COc5ccc(C)cc5)nc4c3c2-c2ccc(OC)cc2)cc1 | -8% | -6%
63 | CC(=O)c1ccc(NC(=O)/C=C/c2ccc(C)o2)cc1 | -5% | -11%
64 | Nc1nonc1-n1nnc(C(=O)N/N=C/c2ccccc2Cl)c1COc1ccc(F)cc1 | -10% | i
65 | Cc1cc(O)c(C=O)c(O)c1C(=O)O | 12% | i
66 | CC1CCC(NC(=O)c2ccc(CNc3c(NC4CCCCC4)c(=O)c3=O)cc2)CC1 (stereo not drawn) | -7% | -8%
67 | CCN(CC)CCC(=O)Nc1cccc2c1C(=O)c1ccccc1C2=O | ? | ?
68 | CCOC(=O)c1c(C)nsc1NC(=O)C1CCCCC1 | -7% | -8%
69 | COc1ccccc1CCNC(=O)COc1cccc2c1OC(C)(C)C2 | -12% | -30%
70 | CCN(C(=O)CN1C(=O)COc2ccc(S(=O)(=O)N3CCOCC3)cc21)c1ccc(OC)cc1 | -7% | -3%
71 | O=S(=O)(NCC(c1ccc2c(c1)OCO2)N1CCOCC1)c1ccc(F)cc1 (stereo not drawn) | -4% | -15%
72 | COc1cc(OC)cc(C(=O)Nc2ccccc2-c2nnn(CC(N)=O)n2)c1 | 0% | i
73 | Cc1cc(NC(=O)CSc2nnc(-c3cccnc3)n2N)no1 | -3% | .
74 | COc1cccc(/C=N/NC(=O)C(c2ccncc2)N2CCOCC2)c1 (stereo not drawn) | -8% | -3%
75 | O=C(NCc1ccc(F)cc1)C(=O)NCC1OCCN1C(=O)c1cccs1 (stereo not drawn) | -13% | -26%
76 | CCN(c1ccccc1)S(=O)(=O)c1ccc(OC)c(NC(=O)c2ccco2)c1 | -7% | i
77 | CCS(=O)(=O)c1ccc(Sc2nncn2C)c([N+](=O)[O-])c1 | 2% | -4%
78 | O=C(NCc1cccc(Cl)c1)C1CCN(c2nnc(N3CCCC3=O)s2)CC1 | -20% | i
79 | CCN1C(=O)[C@H]2[C@@H](c3ccc(-c4ccc(C(C)=O)cc4)c(OC)c3)N3CCCC[C@@]3(C(=O)OC)[C@H]2C1=O | -26% | i
80 | Cc1cc(C)n(-c2nc3ccccc3nc2Nc2ccc3[nH]c(=O)[nH]c3c2)n1 | -19% | -28%
81 | CCCN1C(=O)C(O)(CC(=O)c2ccc(CC)cc2)c2cc(Br)ccc21 (stereo not drawn) | -10%[7.34 µM] | -17%[7.34 µM]
82 | O=c1cc(CO)[nH]cc1OCc1ccccc1 | -5% | -11%
83 | CCOC(=O)COc1ncn(-c2ccccc2)n1 | -8% | .
84 | CC1CCN(S(=O)(=O)c2cn(CC(=O)Nc3cccc(C#N)c3)cn2)CC1 | -23% | -3%
85 | COc1ccc(C(=O)NN(C)c2nc(C(F)(F)F)nc3ccccc23)cc1 | ? | i
86 | CCCCNC(=O)Cn1cnc2ccc(S(=O)(=O)N3CCC(C)CC3)cc2c1=O | -18% | -4%
87 | Cc1cc(C(=O)CN2C(=O)NC3(CCCCC3)C2=O)c(C)n1Cc1ccco1 | -8% | -15%
88 | CCCCCCCCC(=O)N/N=C/c1cccc(Br)c1 | -5% | -4%
89 | CC(=O)Nc1ccc(S(=O)(=O)N2CCC(c3ccncc3)CC2)cc1 | -23% | -12%
90 | COc1ccc(CCN(C)C(=O)c2c(C)nn(-c3ccccc3)c2C)cc1OC | -2% | 2%
91 | O=C(NCc1cccs1)c1ccc(CSc2nc3ccncc3n2Cc2ccccc2)cc1 | -19% | -19%
92 | CCC(C(=O)Nc1cc(C)cc(C)n1)c1ccccc1 (stereo not drawn) | -6% | i
93 | CCc1cccc(NC(=O)Cn2c(-c3ccc(F)cc3)cc(C(C)=O)c2C)c1 | -27% | ?
94 | Cc1[nH]c2ccccc2c1/C=N/NC(=O)CNC(=O)Cc1ccccc1 | -7% | ?
95 | COc1ccc(OC)c(C(C)NC(=O)Nc2cccc(C(C)=O)c2)c1 (stereo not drawn) | 2% | i
96 | COc1cc(Cl)c(C)cc1NC(=O)COC(=O)c1cc[n+]([O-])cc1 | -7% | -1%

Compound profiles (already shown). Values in the order: Vaccinia Venus | VACV mCherry inh
Listed for CC(=NOC(=O)c1ccc(F)cc1)c1nccs1 = -3% | 25%
Listed for Cc1cc(C(=O)CN2C(=O)NC3(CCCCC3)C2=O)c(C)n1Cc1ccco1 = -8% | -15%
Listed for CCNC(=O)NNC(=O)C1CC(c2cccs2)=NO1 (stereo not drawn) = -14% | -4%
Listed for O=C(Cn1cccc1)Nc1ccc(F)cc1F = -7% | -4%

Later entries
item | Molecule | Vaccinia Venus | VACV mCherry inh
97 | COc1ccc(-c2nc(CN3C(=O)CN=C(c4ccccc4)c4ccccc43)c(C)o2)cc1OC | -23% | -22%
98 | CC1CC(C(F)F)n2nc(C(=O)Nc3sc4c(c3C#N)CCC(C(C)(C)C)C4)nc2N1 (stereo not drawn) | -8% | -17%
99 | COc1ccc(NC(=O)C2Cc3c(-c4ccncc4)ccnc3O2)cc1OC (stereo not drawn) | -15% | 8%
100 | CN1C[C@H](C(=O)N[C@@]2(C)O[C@@]3(O)C4CCCN4C(=O)C(Cc4ccccc4)N3C2=O)C[C@H]2c3cccc4[nH]cc(c34)C[C@H]21 (stereo partly drawn) | -15% | -21%
101 | COc1ccc2c(CN3CCCCCCC3)cc(=O)oc2c1 | -3% | 13%
102 | CCCCCC1(C(C)C)C(=O)NC(=S)NC1=O | -6% | i
103 | O=C(O)c1ccc(N=Cc2c(O)ccc3ccccc23)cc1 | -18% | ?
104 | O=C(COC(=O)c1cc(S(=O)(=O)N2CCOCC2)ccc1Cl)NC1CCCCC1 | -4% | i
105 | O=C(COC(=O)c1ccc(O)cc1)Nc1ccc2c(c1)OCCO2 | -12% | -3%
106 | Cc1ccc(S(=O)(=O)NCC(=O)NC2CCCCCC2)cc1 | -11% | -9%
107 | CCCC(=O)N1CCC1(C)C(=O)Nc1cccc(OC(C)C)c1 (stereo not drawn) | 5% | 9%

From PubChem
